High-throughput results as filed in PubChem BioAssay.
BJeLR viability – BJeLR cell viability loss; inhibition, % (no concentration beside the values); 0.17% of 300,000 active; BJeLR (HRASV12) viability, CellTiter-Glo ATP luminescence, 48 h; reference of the scale not given here;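 active means replicate mean above 50%; inconclusive means above 50% but judged a plate artefact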;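 further: 50 nL library stock added to about 25 µL; numbers are from one replicate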
RN4220 kill – kills Staphylococcus aureus RN4220; AID 1259311; 0.33% of 330,000 active; inhibition, % (no concentration beside the values); S. aureus RN4220 growth, OD600, 16 h;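 active means z-score of -3 or lower and OD600 up to 0.18 on both plates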;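 further: plate controls were untreated cells for no effect and reference antibiotic for full effect; stock transfer was 100 nL into about 80 µL; one replicate is shown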
Mtb hypoxia rep – inhibitors of hypoxia-regulated fluorescent reporter in Mycobacterium tuberculosis; fluorescence inhibition, % (concentration not given with the values); 0.1% of 300,000 active; AID 1159583; M. tuberculosis hypoxia-regulated fluorescent reporter, fluorescence;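 active means 35 to 45% if threefold the growth effect, above 45% if 1.5-fold the growth effect; inactive means the rest, general growth blockers included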;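 further: wells of about 50 µL received 100 nL stock; 0% = vehicle wells and 100% = reference inhibitor wells; whole bacteria with a GFP reporter of the hypoxia response; strong numbers were not always called active; many hits fall short of the cut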
Autofluor counter – counter-screen for toxin protease inhibitors: compound fluorescence | 3.1% of 360,000 active | AID 624483 | fluorescence intensity (test concentration not listed) | compound autofluorescence counterscreen, microsphere flow cytometry; stronger effect = higher value;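 active means at least 3 SD above the mean of all compounds, about 16000 in these data; inconclusive means too few beads counted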;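 further: 100 nL of 1 mM stock went into each well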
PrP UTR inh – inhibition of PrP 5' UTR reporter expression; cell-based PrP 5' UTR mRNA reporter, plate reader; inhibition, % (concentration not given with the values); AID 488862; 0.35% of 340,000 active;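 active means every replicate at 50% or more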;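 further: 0 = median of the neutral control wells; tested in H4 reporter cells; numbers are from one replicate; inactives centre near -14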
Sa ugtP lethal – compounds lethal to S. aureus RN4220 ugtP deletion mutant. OD600 growth, 16 h; some inactives read as strong as hits. growth inhibition, % (test concentration not listed). 0.54% of 330,000 active;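 active means z-score under -3 and OD600 up to 0.15 on both plates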;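 further: plate controls were untreated wells for no effect and antibiotic for full effect; wells of about 80 µL received 100 nL stock; the first replicate is given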
Mtb hypoxia rep growth – further read-out of Mtb hypoxia rep, marked with its call; growth inhibition, %; measured here: M. tuberculosis growth (absorbance);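 0% = vehicle and 100% = reference antibiotic; read after six days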
An asterisk follows results filed as active; ? = inconclusive; . = not tested or not shown.

canonical_smiles,BJeLR viability,RN4220 kill,Mtb hypoxia rep,Mtb hypoxia rep growth,Autofluor counter,PrP UTR inh,Sa ugtP lethal
CC(=O)c1cn(N(C)c2ncc(C(F)(F)F)cc2Cl)c(=O)[nH]c1=O,0,2.3,-3,0,4752,-28,4
CN(C)S(=O)(=O)c1cccc(NC(=O)NCCCl)c1,-5,2.2,0,5,3686,-4,5
O=C(CC1SC(N2CCOCC2)=NC1=O)Nc1ccccc1F (configuration not stated),.,2.6,-6,-9,3547,1,4
COc1ccccc1CN(Cc1nc2ccccc2c(=O)[nH]1)S(=O)(=O)c1ccc2ccccc2c1,6,-4.2,-8,2,9978,-12,-20
O=C(c1ccc2snnc2c1)N1CCCCC1,-1,0.5,.,.,4586,6,1
O=C(CCC(=O)N1CCc2ccccc2C1)NCCc1ccc(Cl)cc1,10,-1.7,-6,-6,.,-11,-7
OCCSc1c(F)c(SCCO)c(SCCO)c(F)c1SCCO,4,-1.8,0,10,23508*,-51,-1
CCCCN(CC)C(=O)CSc1nc2ccccc2c(=O)n1CC1COc2ccccc2O1 (configuration not stated),0,0.2,10,10,7825,-17,-2
Cc1c(NC(=O)C(C)OC(=O)c2c3c(nc4ccccc24)CCC(C)C3)c(=O)n(-c2ccccc2)n1C (configuration not stated),-5,1.8,11,4,4713,-9,0
NC(=O)C1CCCCNc2c(F)cc([N+](=O)[O-])cc2C(=O)NC(CC(=O)O)C(=O)NC(CCC(=O)O)C(=O)N1 (configuration not stated),.,3.6,3,7,.,.,-2
COc1ccc(N2CCN(C(=O)c3csc4ccccc34)CC2)cc1,-2,8.0,-3,-8,16323*,-12,10
C=CCOc1ccc(/C=N/NC(=O)C2CCCC2)cc1OCC,-2,.,.,.,11302,-7,.
Cc1ccc(NC(=O)COc2cccc3ccc(C)nc23)c(Br)c1,-10,3.9,5,4,6705,-11,-1
CN(C)Cc1ccccc1C1(O)c2ccccc2CSc2ccccc21 (configuration not stated),8,-4.7,.,.,2370,-1,1
Cc1ccc2c(c1)C1CN(C)CCC1N2C(=O)c1ccccc1NS(=O)(=O)c1ccc(F)cc1C (configuration not stated),-10,12,5,1,2113,-17,19
CCOC(=O)/C(=N\Nc1cccc(C(F)(F)F)c1)N1CCOCC1,1,.,.,.,4396,5,.
O=C(COc1cccnc1[N+](=O)[O-])Nc1ccc2c(c1)CCC2,0,1.8,-4,11,3591,-3,-4
CC(C)C(NC(=O)c1ccco1)C(=O)NCC(c1ccco1)N(C)C (configuration not stated),-3,3.5,14,13,8485,7,3
CC(=O)Nc1ccc(-c2nnn(CC(=O)Nc3ccc4c(c3)OCO4)n2)cc1Cl,-1,3.2,8,3,4620,-10,-2
O=C(O)c1cccc(S(=O)(=O)N2Cc3ccccc3C2)c1,0,1.1,1,6,3267,-6,-2
CCC(=O)Nc1ccc2c(c1)Cc1cc([N+](=O)[O-])ccc1-2,.,0.2,0,9,2971,-31,-3
CN1CCCC(OC(=O)c2cccc(Cl)c2)C1 (configuration not stated),5,3.0,10,-1,3623,-43,3
COc1ccc(Cl)cc1NC(=O)CN(C)C(=O)c1cc(=O)c2ccccc2o1,.,5.1,-1,2,2699,-8,5
O=C(Nc1ccc(Cn2nnc3ccccc32)cc1)c1ccco1,-3,4.3,0,-1,?,-23,12
NC(=S)NN=Cc1ccc(-n2nncc2-c2ccc(Cl)cc2)cc1,.,2.1,.,.,.,.,-11
COc1ccccc1C(O)(C(=O)NNc1ccccc1C)c1ccccc1OC,1,1.1,5,0,2064,-9,-1
CCc1ccc(OCC(=O)Nc2ccc(S(=O)(=O)N3CCOCC3)cc2)cc1,-1,1.8,4,4,?,-11,2
O=C(O)C1C(c2ccccc2)C(C(=O)N2CCOCC2)C1c1ccccc1 (configuration not stated),-6,2.2,0,-5,9507,-19,-1
COc1ccc(S(=O)(=O)Nc2ccccc2C(=O)NN2CCOCC2)cc1OC,.,2.8,3,3,6157,-1,7
COC(=O)c1ccccc1NC(=O)CSc1nnc(-c2ccc(OC)cc2)n1C,0,-4.3,11,2,.,-14,1
Cc1cc2c3c(c1)C(C)CC(C)(C)N3C(=O)C2=O (configuration not stated),-4,-4.6,-6,5,4716,-6,0
O=C(Nc1cccc(F)c1)C1CCCN(S(=O)(=O)c2ccccc2)C1 (configuration not stated),5,2.1,-1,0,5391,-14,6
O=c1c2cc(Br)ccc2[nH]c(=S)n1Cc1ccccc1,-9,-0.9,4,1,3776,-5,10
Cc1ccccc1C(=O)Nc1ccc(C(=O)NN=Cc2ccccn2)cc1,.,3.4,10,-4,.,.,13
N#CCCn1cc(C=O)c(-c2cccs2)n1,-20,0.3,-6,5,4546,-26,3
O=C(CCN1C(=O)/C(=C/c2ccccc2Cl)SC1=S)NC1CCCC1,0,-1.0,21,-14,5023,-19,4
CN1/C(=C\C=C2C(=O)NC(=S)NC2=O)C(C)(C)c2ccccc21,-1,0.7,10,-3,14576,-18,-1
COC(=O)c1ccc(CN2CCN(C(C)C)C(CCO)C2)cc1 (configuration not stated),11,1.9,5,11,2538,-15,-5
COc1ccc(C(=O)C[n+]2ccc3ccccc3c2C)cc1,1,-6.2,6,1,.,-63,1
COC(=O)[C@@H](NC(=O)c1ccc2c(c1)S(=O)(=O)c1ccccc1C2=O)C(C)C,0,4.5,8,1,3840,-23,2
Cc1ccc(/C(N)=N/OC(=O)c2ccc(Cl)cc2Cl)cc1,0,1.7,10,12,2749,-29,9
Cc1nc(-c2ccc(NC(=O)c3ccccc3Br)cc2)cs1,-13,10,6,5,2562,-116,5
CC(=O)NCCc1c[nH]c2ccc(OCc3ccccc3)cc12,0,3.9,10,4,3336,.,6
Cc1oc(/N=C/c2cccc([N+](=O)[O-])c2)c(C#N)c1C,1,.,.,.,3589,-8,.
CC1CC(C)CN(CCCNC(=O)C2CCCN(c3nnc(N4CCCC4=O)s3)C2)C1 (configuration not stated),-1,0.0,6,10,3360,-19,1
Cc1cc(NCCN2CCOCC2)n2ncc(-c3ccccc3)c2n1,-1,-0.2,.,.,4697,-105,13
CC(C)c1ccccc1N=C1SCCCN1C(=O)c1cccc(N2C(=O)CCC2=O)c1,0,2.1,-15,-15,?,-1,-3
Cc1ccnc(NC(=O)Cc2ccc(-c3ccccc3)cc2)c1,10,1.6,0,-1,5569,-38,-3
Cc1cc(C)n(CC(O)Cn2c3ccc(Br)cc3c3cc(Br)ccc32)c(=O)n1 (configuration not stated),-3,-11,-7,-13,11374,-16,-36
O=C(c1ccc(Cl)c(Cl)c1)c1cc(-c2ccccn2)c(N2CCOCC2)s1,2,-2.9,-2,9,13455,-8,-16
COc1cccc(NC(=S)NNC(=O)Cn2nc(C(F)F)cc2C(F)F)c1,-2,5.8,3,4,2126,-4,10
C=CCc1cccc(Cl)c1OCCON1C(=O)CCC1=O,2,7.5,5,6,5904,-38,5
Cc1ccccc1CSc1nnc(-c2cnccn2)n1C,-1,5.7,.,.,4103,.,18
COc1ccccc1-c1nnc(SCC(=O)NC2CCS(=O)(=O)C2)n1CCc1ccccc1 (configuration not stated),-3,5.8,13,-3,2784,-18,1
CCn1nnnc1NCc1ccc(N2CCCC2)cc1,-1,6.8,.,.,2096,-19,5
CCC(C)NC(=O)C(Sc1ccccc1)c1ccccc1 (configuration not stated),0,0.0,-9,-12,2469,-11,2
CCOC(=O)c1ccccc1NC(=O)CCNC(=O)Cn1cnc2ccccc2c1=O,5,-0.4,.,.,3405,-24,1
O=C(CS(=O)Cc1ccccc1Cl)Nc1ccccc1Cl (configuration not stated),-2,-2.7,-9,4,4737,-23,-4
O=C(Nc1cc([N+](=O)[O-])ccc1O)NC1CCS(=O)(=O)C1 (configuration not stated),.,-0.1,8,1,2948,-21,0
O=C(CC1C(=O)CCCC1=O)c1ccccc1,9,-0.4,0,-3,4686,-25,2

(cont.)
canonical_smiles,BJeLR viability,RN4220 kill,Mtb hypoxia rep,Mtb hypoxia rep growth,Autofluor counter,PrP UTR inh,Sa ugtP lethal
O=C(O)c1ccc(Cl)c(S(=O)(=O)NCc2cccnc2)c1,-2,9.1,1,-2,3280,4,5
CC(C)(C)C1=C[C@@H](CO)C[C@@H](CO)C1,5,3.8,.,.,3663,-11,6
N#Cc1nc(-c2ccco2)oc1NCc1ccccc1Cl,-8,1.5,-4,8,3714,.,-7
O=C(CN1CCN(c2ccc([N+](=O)[O-])cc2Cl)CC1)N1CCOCC1,-7,2.2,2,4,4421,-13,6
O=C1CSC(c2ccc(Cl)cc2Cl)N1c1ccccn1 (configuration not stated),2,2.4,-2,-1,2809,-20,9
CN1CCN(c2nc3c(c(=O)n(C)c(=O)n3C)n2Cc2cccc3ccccc23)CC1,4,-14,3,1,3115,1,-6
Cc1ccc(C=Nn2c(-c3ccccc3)n[nH]c2=S)s1,.,9.8,12,13,.,.,-7
COc1ccc(/C=N/NC(=O)c2ccncc2)cc1CN1CCOCC1,-4,.,.,.,4629,-22,.
COC(=O)[C@@H](Cc1c[nH]c2ccccc12)NC(=O)c1ccc2c(c1)OCO2,3,3.7,-18,6,4034,-54,-6
Cc1cccc(NC(=O)CN2C(=S)NC(C)(C)CC2C)c1 (configuration not stated),-5,2.3,11,-1,7718,-12,1
O=C(COC(=O)c1n[nH]c2ccccc12)NCCc1ccccc1,.,4.6,2,7,3963,-17,6
CC(C)NC(=O)CSc1nc(Cc2ccccc2)nc2ccccc12,-1,5.6,11,0,.,-14,9
Cc1c(C(=O)NCc2ccccn2)oc2ccc(S(=O)(=O)N3CCC4(CC3)OCCO4)cc12,-7,6.2,12,2,3558,-38,-2
O=C1NCCCCC1NS(=O)(=O)c1ccc(F)c(F)c1 (configuration not stated),-5,3.8,-2,3,6040,-21,2
CCOC(=O)c1cc2n(n1)C(C(F)(F)F)CC(C)N2 (configuration not stated),7,7.1,3,3,3002,-21,1
CCC(=O)NC(=S)Nc1ccc(S(=O)(=O)NC(C)=O)cc1,9,-0.9,.,.,2741,-17,-1
COc1ccccc1NS(=O)(=O)c1cc(NC(=O)c2ccc(NC(C)=O)cc2)ccc1N1CCOCC1,.,34,5,3,3671,-17,34
COc1ccc(NC(=O)CNC(=O)Cn2cnc3sc(C)c(C)c3c2=O)cc1OC,4,1.9,14,5,6136,-29,2
Cc1cccc(C(=O)NC(=S)NCc2ccccc2)c1,0,-1.5,-6,4,4231,-38,25
CCCC(=O)NC(=S)Nc1ccc(Cl)cn1,-7,1.0,8,3,3373,-14,26
CN(CC(=O)Nc1ccc(Cl)c(S(=O)(=O)N2CCOCC2)c1)C(=O)c1cccs1,.,4.7,3,-3,2968,-1,5
COc1ccc(F)cc1CN1CCN(CC(=O)N2CCc3ccccc32)CC1,4,2.4,-9,7,5421,-23,5
COc1ccccc1NC(=S)NNC(=O)c1ccc(Cl)cc1Cl,-9,14,4,7,3729,-32,-4
COc1ccc(S(=O)(=O)N2CCOCC2)cc1NS(=O)(=O)/C=C/c1ccccc1,5,9.1,7,1,4693,-15,3
Cn1c(C(=O)OCC(=O)NCC2CCCO2)cc2sccc21 (configuration not stated),6,6.0,9,7,7318,0,4
CCOc1ccc(NC(=O)CSc2nncc(=O)[nH]2)cc1,1,2.6,8,11,6409,-10,2

Structures listed so far that have a CF3 group, in the order listed:
canonical_smiles,BJeLR viability,RN4220 kill,Mtb hypoxia rep,Mtb hypoxia rep growth,Autofluor counter,PrP UTR inh,Sa ugtP lethal
CC(=O)c1cn(N(C)c2ncc(C(F)(F)F)cc2Cl)c(=O)[nH]c1=O,0,2.3,-3,0,4752,-28,4
CCOC(=O)/C(=N\Nc1cccc(C(F)(F)F)c1)N1CCOCC1,1,.,.,.,4396,5,.
CCOC(=O)c1cc2n(n1)C(C(F)(F)F)CC(C)N2 (configuration not stated),7,7.1,3,3,3002,-21,1

Reformatted field by field: 2 of the compounds above.
COc1ccc(S(=O)(=O)Nc2ccccc2C(=O)NN2CCOCC2)cc1OC
  BJeLR viability: .
  RN4220 kill: 2.8
  Mtb hypoxia rep: 3
  Mtb hypoxia rep growth: 3
  Autofluor counter: 6157
  PrP UTR inh: -1
  Sa ugtP lethal: 7
CCC(=O)Nc1ccc2c(c1)Cc1cc([N+](=O)[O-])ccc1-2
  BJeLR viability: .
  RN4220 kill: 0.2
  Mtb hypoxia rep: 0
  Mtb hypoxia rep growth: 9
  Autofluor counter: 2971
  PrP UTR inh: -31
  Sa ugtP lethal: -3
